Source: PubChem BioAssay (several laboratories)
FGF22 binding – shifts melting point of recombinant human FGF22; Q9HCT0; recombinant FGF22 thermal shift, SYPRO orange fluorescence; percent of sucrose octasulfate shift, DMSO zero; calls only at 9.99 µM; 1.5% of 340,000 active; AID 651658;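 active means melting point raised past a set limit in the mean and every replicate; three in four hits are not shown here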
UCH37 DUB inh – blocks the human deubiquitinase UCH37. Q9Y5K5. purified proteasome/UCH37, Ub-AMC cleavage fluorescence. AID 588478. 0.33% of 330,000 active. inhibition, % (no concentration beside the values);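 active means mean of two replicates above 20%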;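 further: 0% = compound-free wells with enzyme and 100% = wells lacking proteasome; stock transfer was 100 nL into about 20 µL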
Target sequence (Q9Y5K5 whole entry, looked up): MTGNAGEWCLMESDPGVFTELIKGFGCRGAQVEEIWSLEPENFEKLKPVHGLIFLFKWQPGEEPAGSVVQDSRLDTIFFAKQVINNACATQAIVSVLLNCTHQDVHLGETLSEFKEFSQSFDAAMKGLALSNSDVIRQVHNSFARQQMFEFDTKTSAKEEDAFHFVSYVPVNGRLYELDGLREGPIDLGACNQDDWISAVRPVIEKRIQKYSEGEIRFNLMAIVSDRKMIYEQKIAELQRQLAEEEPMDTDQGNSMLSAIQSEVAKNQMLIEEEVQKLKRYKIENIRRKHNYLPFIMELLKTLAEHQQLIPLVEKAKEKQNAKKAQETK
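Material: Human UCH37 enzyme supplied as purified proteasome complex | Schedule: 30 min preincubation with enzyme, 25 min cleavage at room temperature | Detection: AMC fluorescence 355/460 nm | Measure: % inhibition of Ub-AMC cleavage fluorescence | Controls: Wells without proteasome as full block, compound-free enzyme plus substrate as uninhibited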
HNF4A DNA FP – change in binding of human HNF4 alpha to DNA; P41235; HNF4a-FITC DNA binding, fluorescence polarization, 1 h; activity change, % at 10 µM; 0.3% of 360,000 active; AID 1224865; in the data active means activity change above about 30%, passing the limit was not always enough;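 further: controls were the assay level and a saturating level of protein; the project sought stronger binding though the title names inhibitors; some compounds called inactive have numbers as strong as hits; positive values seem to mean higher polarization but the record does not say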
Target sequence (P41235 whole entry, looked up): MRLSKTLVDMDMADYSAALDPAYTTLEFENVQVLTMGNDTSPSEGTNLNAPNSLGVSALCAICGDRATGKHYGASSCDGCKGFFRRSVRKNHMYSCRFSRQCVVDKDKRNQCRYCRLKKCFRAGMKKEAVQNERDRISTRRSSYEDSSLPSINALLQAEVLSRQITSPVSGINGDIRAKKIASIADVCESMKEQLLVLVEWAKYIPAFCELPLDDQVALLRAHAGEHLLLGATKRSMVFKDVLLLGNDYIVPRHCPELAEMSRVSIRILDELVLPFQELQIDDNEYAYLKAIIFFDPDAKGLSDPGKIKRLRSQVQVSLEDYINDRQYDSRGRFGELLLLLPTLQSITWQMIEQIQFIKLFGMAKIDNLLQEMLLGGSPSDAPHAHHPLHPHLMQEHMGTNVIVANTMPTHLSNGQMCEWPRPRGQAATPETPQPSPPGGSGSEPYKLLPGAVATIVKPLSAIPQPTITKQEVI
Ecoli growth – E. coli growth inhibition; OD600 absorbance (test concentration not listed); Escherichia coli growth, OD600, 23 h; stronger effect = lower value; AID 1053175; 0.21% of 330,000 active;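 active means OD600 absorbance below the run mean of sample wells minus 3.6 SD, in any replicate, cut at about 0.56 in these data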;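 further: stock transfer was 300 nL into about 60 µL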
ALR H2O2 inh – blocks human ALR sulfhydryl oxidase activity. P55789. purified ALR, DTT oxidation, H2O2 HRP-luminol luminescence. inhibition, % (test concentration not listed). 3.8% of 290,000 active;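 active means mean and each replicate at 75% or more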;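 further: stock transfer was 7.5 nL into about 7.5 µL; 0% = neutral wells and 100% = wells with inactivated enzyme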
Target sequence (P55789 whole entry, looked up): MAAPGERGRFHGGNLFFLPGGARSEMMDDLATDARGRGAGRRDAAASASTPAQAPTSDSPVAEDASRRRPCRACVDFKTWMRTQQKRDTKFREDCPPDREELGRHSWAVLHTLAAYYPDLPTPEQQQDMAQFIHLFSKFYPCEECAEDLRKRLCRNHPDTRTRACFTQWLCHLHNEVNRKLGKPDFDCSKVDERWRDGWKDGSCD
rRNA inh HTS – inhibits bacterial ribosomal RNA function over humanized ribosomes; GFP signal change (wild-type ribosome), % (concentration not given with the values); 1.6% of 350,000 active; E. coli WT GFP vs humanized-ribosome RFP mutants, fluorescence, 24 h; stronger effect = lower value; DMSO median 0, no signal -100; AID 720706;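 active means significant combined selectivity score with lowered wild-type GFP, culture density cut under 30%, mutant RFP and density less affected; inactive means any of these conditions unmet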; further: one replicate is shown; some compounds called inactive have numbers as strong as hits
B2AR ag – human beta-2 adrenergic receptor agonism by FAP | 0.43% of 340,000 active | Am2.2-beta2AR cells, FAP receptor internalization, flow cytometry; reference of the scale not given here | AID 504454 | response, % (no concentration beside the values);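 active means response above a set limit, near 3 SD of response in nonfluorescent compounds, cut at about 42% in these data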;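 further: stock transfer was 100 nL into about 11 µL; a reference agonist was the positive control; negative values mostly stem from fluorescent compounds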
rRNA inh HTS OD600 – also measured in rRNA inh HTS; calls as there; OD600 change, %; measured here: OD600 growth;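 optical density of the mix in the first replicate; 0 = DMSO median and -100 = no signal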
rRNA inh HTS RFP – second read-out of rRNA inh HTS, no call of its own (marks repeat the call); RFP signal change, %; measured here: RFP humanized mutant strains;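 first replicate; 0 = DMSO median and -100 = no signal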
The depositor's hits bear a star; i = inactive; . = no result given; & = joins results of further samples. These rows are one share of the data. The share of hits here may be higher or lower than overall.

SMILES	FGF22 binding	UCH37 DUB inh	HNF4A DNA FP	Ecoli growth	ALR H2O2 inh	rRNA inh HTS	rRNA inh HTS OD600	rRNA inh HTS RFP	B2AR ag
COCCCN(C(=O)c1cccnc1SC)c1c(N)n(Cc2ccccc2)c(=O)[nH]c1=O	.	3.3	2.2	0.73	.	.	.	.	2
CN(C)C=NC(=O)c1cc(C(=O)c2ccccc2Cl)c[nH]1	i	7.3	0.2	0.69	1	-1	7	-4.6	2
CCN(C[C@H]1N[C@@](CC)(C(=O)OC)[C@H]2C(=O)N(C)C(=O)[C@@H]12)S(=O)(=O)c1ccc(OC)cc1	i	3.2	0.3	0.7	.	3	9	2.7	-4
CCOC(=O)C1CCCCN1Cc1ccccc1C(F)(F)F (stereo unspecified)	.	-0.7	-1.6	0.66	-5	.	.	.	-6
Nc1nc2nn(-c3ccccc3)nc2c(=O)[nH]1	i	i	2.1	0.67	0	11	17	1.7	-4
O=C1[C@H]2[C@@H](C(=O)N1c1cc(Cl)cc(Cl)c1)[C@]1(C(=O)Nc3ccccc31)N1CCC[C@@H]21	.	-0.8	4.3	0.65	-3	.	.	.	6
C/C(Cl)=C/CSc1nnc2n(N)c(=O)c3ccccc3n12	.	2.1	0.3	0.7	16	.	.	.	-18
O=C(CC1C(=O)NCCN1Cc1cccc(Oc2ccccc2)c1)NCCc1ccncc1 (stereo unspecified)	i	1.8	-3.7	0.68	4	1	-7	-3.2	-4
CCNc1c(NC(C)=O)c(=O)oc2ccccc12	.	5.5	-0.3	0.7	-1	.	.	.	7
CCOC(=O)N1CCC(NC(=O)C(NS(=O)(=O)c2ccc3c(c2)CCN3C(=O)CC)C(C)C)CC1 (stereo unspecified)	i	0.7	-0.8	0.65	0	13	13	-1.2	-7
Cc1ccc(C(=O)N/N=C/C2=Cc3ccccc3OC2C)cc1 (stereo unspecified)	i	.	2.9	.	21	-21	-34	0.9	5
CC1(NC(=O)N2CCOCC2)CCS(=O)(=O)C1 (stereo unspecified)	.	1.8	1.9	0.71	-1	4	7	-1.6	-3
CCCCOc1ccc(CSc2nncn2N)cc1	.	5.5	-0.8	0.76	-2	.	.	.	-15
O=C1CC=Nc2ccc([N+](=O)[O-])cc21	i	.	-2.8	.	.	2	1	-2.1	.
CCN(CC)C(=O)Cn1cc(S(=O)(=O)CC(=O)NCc2ccc3c(c2)OCO3)c2ccccc21	i	4.1	-1.5	0.7	-17	10	8	-1.2	2
C[C@@H]1CN([C@H](C)CO)C(=O)CCCn2nncc2CO[C@H]1CN(C)Cc1ccc2cccnc2c1	i	.	-1.4	.	.	2&0	11&-5	-4.5&1.5	.
CC(C)CNS(=O)(=O)c1ccc(NC(=O)Cn2nc(-c3ccc(F)cc3)ccc2=O)cc1	.	.	-2.8	.	2	.	.	.	2
CCOc1ccccc1N1CCN(C(=O)c2cccs2)CC1	i	-1.6	-0.4	0.73	27	1	-2	-0.1	4
COc1cccc(CN(C)C(=O)c2cccc(S(=O)(=O)N3CCN(c4ccc(F)cc4)CC3)c2)c1OC	i	1.6	4.9	0.7	-9	-6	-10	4.3	1
COc1ccc(C(=O)C=CNNC(=O)c2ccc(Cl)cc2)cc1	i	.	-1.6	.	.	2	7	-2.1	1
OCCNC(=S)Nc1ccc2nsnc2c1	i	2.8	-1.6	0.7	-34	0	0	5.9	8
CN(C)c1cc2c(cc1NC(=O)c1ccccc1Cl)n(C)c(=O)n2C	i	0.8	-1.3	0.64	55	-17	-14	-2.8	-8
Cc1ccc(NC(=O)Nc2sc(=S)n(C)c2C)cc1	.	-2.9	-1.1	0.67	42	.	.	.	-1
COc1cc(SC)ccc1C(=O)N(C)Cc1ccccc1	.	5.0	-0.1	0.76	-11	.	.	.	-5
Fc1cc2ncn(Cc3ccccc3)c2cc1F	.	25*	-0.8	0.69	-3	.	.	.	1
NC(=O)/C(=C\c1cccnc1)NC(=O)c1ccccc1	i	-0.4	-0.5	0.68	-9	10	6	-2.8	-8
Cc1cn([C@H]2C[C@H](O)[C@@H](CNS(=O)(=O)c3ccc(NS(=O)(=O)N(C)C)cc3)O2)c(=O)[nH]c1=O	i	.	8.4	.	.	-1	-4	-3.2	.
CC(C)COC(=O)N(C)C[C@@H]1OCc2cnnn2CCCC(=O)N([C@H](C)CO)C[C@H]1C	i	.	-2.7	.	.	3&0	4&-1	1.8&-1.9	.
Cc1cc(N2CCN(S(=O)(=O)c3ccc(Br)cc3)CC2)n2ncnc2n1	i	1.5	-0.1	0.69	-34	-11	-12	-2.0	-8
O=C(CN(C(=O)c1csnn1)c1ccccc1)NCc1ccc2c(c1)OCO2	i	2.1	1.7	0.7	21	6	5	-0.8	-5
O=C(NCC1CCCO1)C1CCN(C(=O)c2ccc(Br)cc2)CC1 (stereo unspecified)	.	1.5	3.7	0.71	0	12	3	-1.9	-12
Cc1ccc(S(=O)(=O)N2CCC(C(=O)NCCN3CCCCCC3)CC2)cc1	.	4.8	2.1	0.7	.	.	.	.	-5
COc1ccc2nc(SCC(=O)NC(C)(C)C)[nH]c2c1	.	2.7	4.1	0.62	-1	.	.	.	-1
Fc1ccccc1NC(=S)N1CCOCC1	i	3.4	1.8	0.65	-11	4	8	-1.3	-10
O=C(N/N=C/c1cccc2cccnc12)[C@H]1C[C@@H]1c1ccccc1	i	.	0.7	.	.	-6	9	-5.2	8
Cc1ccccc1NC(=O)c1ccc2c(c1)C(=O)N(CCC(C)C)C2=O	.	-4.6	0.1	0.77	4	.	.	.	1
Cc1oc(-c2cccc3ccccc23)nc1CN1CCC[C@H]1CO	i	-13	-0.6	0.7	-16	4	-2	5.4	0
CC1(C(=O)NS(=O)(=O)c2cccc(C#N)c2)CCN1C(=O)Cc1ccccc1 (stereo unspecified)	i	.	-4.5	.	.	10	10	-5.3	.
COC(CNC(=O)C(=O)Nc1cc2c3c(c1)CC(=O)N3CCC2)OC	i	5.3	0.3	0.67	-3	9	8	-2.0	1
Cc1cc(C)cc(NC(=O)C(c2ccccc2)N2CCN(CC(=O)NC3CC3)CC2)c1 (stereo unspecified)	i	-2.4	-0.2	0.71	0	.	.	.	12
O=C(CSc1nc(-c2ccccc2)c(-c2ccccc2)[nH]1)NCCN1C(=O)CSC1=O	.	0.4	-1.8	0.69	99*	.	.	.	6
Cc1nc(SCC(=O)NCc2ccccc2)c2oc3ccccc3c2n1	.	5.3	1.5	0.69	-1	.	.	.	-2
CSc1ncc2[nH]c(C(O)c3ccccc3)nc2n1 (stereo unspecified)	i	-0.8	1.7	0.72	.	0	0	-0.6	8
O=C(NCC(=O)c1ccccc1)OCc1ccc([N+](=O)[O-])cc1	i	5.6	1.9	0.68	-3	5	3	-4.3	-3
O=C(CSc1nc2ncc(Br)cc2[nH]1)Nc1ccc2c(c1)OCO2	.	1.8	-3.3	0.76	-19	.	.	.	-1
O=C(O)c1ccc(-c2nc(-c3ccccc3)cs2)cc1	i	.	1.8	.	95*	-20*	-13*	4.1*	17
O=C(O)C1CCN(C(=O)CSc2nc3ccccc3c(=O)n2Cc2ccccc2)CC1	i	0.9	-3.6	0.68	0	0	4	0.5	3
CCC(=O)N(CC)c1nc(-c2ccc(OC)cc2)cs1	.	3.5	-1.8	0.67	34	.	.	.	-8
CCc1cc(-c2nnn(CCC3COCCO3)c2CC)ccc1-c1cn(Cc2ccccc2)nn1 (stereo unspecified)	i	.	-1.6	.	.	-20	-33	-1.0	.
N#C/C(=C\c1cc2c(cc1Br)OCO2)c1ccc(C(=O)O)cc1	i	9.3	-1.0	0.65	55	-24	-39	-6.7	0
COC(=O)c1sc(-c2ccc(Cl)cc2)cc1NC(=O)c1ccccc1C(=O)O	i	2.1	-1.6	0.65	97*	.	.	.	0
COc1ccccc1NS(=O)(=O)c1cc(NC(=O)c2ccncc2)ccc1N1CCOCC1	.	8.2	4.0	0.67	.	.	.	.	2
CCSc1ccc(NC(=O)c2cccnc2)cc1	.	-0.2	-1.1	0.69	-2	.	.	.	-10
Cc1[nH]n2c(=O)cc(Cc3ccccc3)nc2c1C#N	.	0.5	0.1	0.7	5	.	.	.	-3
O=C(CCNC(=O)c1ccc(Br)cc1)NCCCN1CCCC1=O	i	1.5	-1.6	0.7	-3	2	7	-2.0	-4
CSc1nc(-c2ccccc2)nc(N2CCN(C)CC2)c1C(C)=O	.	.	1.1	0.68	-22	.	.	.	-7
O=C(c1ccoc1)N1CCC2(CC1)Oc1ccc(F)cc1C(=O)C21CC(c2ccc(Cl)cc2)=NO1 (stereo unspecified)	i	4.3	-2.9	0.71	-3	6	2	-2.2	-4
CCn1c(SCC(=O)Nc2ccc(OC)c(OC)c2)nnc1-c1ccco1	i	2.4	1.1	0.62	-9	-6	-1	0.5	1
COc1ccc2c(c1)nc(-c1cccc(Br)c1)c(=O)n2C(c1ccccn1)c1nc2ccccc2[nH]1 (stereo unspecified)	i	.	5.4	.	.	14	11	-3.4	.
C=CCn1c(SCC(=O)NC2CCCC2)nc2c([nH]c3ccccc32)c1=O	i	-1.0	-0.1	0.74	1	-8	-6	-2.2	-5

Some values from above.
O=C(c1ccoc1)N1CCC2(CC1)Oc1ccc(F)cc1C(=O)C21CC(c2ccc(Cl)cc2)=NO1 (stereo unspecified) – rRNA inh HTS = 6
C=CCn1c(SCC(=O)NC2CCCC2)nc2c([nH]c3ccccc32)c1=O – rRNA inh HTS RFP = -2.2

Carrying on.
SMILES	FGF22 binding	UCH37 DUB inh	HNF4A DNA FP	Ecoli growth	ALR H2O2 inh	rRNA inh HTS	rRNA inh HTS OD600	rRNA inh HTS RFP	B2AR ag
CC(=O)NCCOc1cccc2ccccc12	.	2.1	1.5	0.65	-16	.	.	.	4
CCCCn1c(=O)[nH]c(=O)c2c1nc(-c1ccc(OC(F)F)c(OC)c1)n2C	i	-26	-1.9	0.71	.	-1	0	-4.0	2
Cc1nccn1CC(=O)N/N=C/c1cc(Br)cs1	i	.	-1.3	.	-1	26	16	3.1	-1
C[C@@H]1O[C@@H](Oc2c(-c3cc(O)c(O)c(O)c3)oc3cc(O)cc(O)c3c2=O)[C@H](O)[C@H](O)[C@H]1O	i	8.0	-0.7	.	99*	3	7	-7.2	12
CCc1cc(=O)oc2cc(C)cc(OCC(=O)NC(Cc3c[nH]c4ccc(O)cc34)C(=O)O)c12 (stereo unspecified)	i	-15	-0.6	0.71	-5	.	.	.	6
Cc1ccc(OCC(=O)NC2CCCc3ccccc32)c(C)c1 (stereo unspecified)	.	-1.3	-2.0	0.7	1	.	.	.	11
COc1ccc(CC(CC(=O)O)C(=O)NCc2ccccc2)cc1 (stereo unspecified)	i	.	0.9	.	-5	15	11	-0.6	10
O=C(c1cc(S(=O)(=O)N2CCOCC2)c(Cl)cc1Cl)N1CCCCC1CO (stereo unspecified)	i	0.9	1.1	0.66	-7	9	2	-2.5	19
Cc1ccc(SCC(=O)NCc2ccncc2)cc1	i	2.7	-0.3	0.68	46	0	-6	0.4	-3
CC1CCCN(C(=O)Cn2cnc3c2c(=O)n(C)c(=O)n3C)C1 (stereo unspecified)	.	0.9	1.9	0.71	0	.	.	.	3
O=C(Cc1ccc2ccccc2c1)Nc1ccccc1Br	i	3.9	0.8	0.64	-24	4	8	1.1	-26
O=S(=O)(c1ccc(F)cc1)N1CCN(C(=S)NCC2CCCO2)CC1 (stereo unspecified)	i	0.3	-1.2	0.69	0	1	2	0.1	1
